# From PubChem BioAssay
# MbtI inh: blocks the Mycobacterium tuberculosis siderophore enzyme MbtI; P9WFX0; purified MbtI enzyme, fluorescence intensity read-out; inhibition, %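 (about 17 µg/mL by stock and volumes)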; actives 0.89% (n = 100,000); AID 493033;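 active = above 50% in both replicates, above 80% if mildly self-fluorescent; inactive = the rest, strongly fluorescent compounds included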;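 also: 0% = mean of negative and 100% = mean of positive controls; one replicate is shown; some compounds called inactive have numbers as strong as hits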
# Target sequence (P9WFX0 whole entry, looked up): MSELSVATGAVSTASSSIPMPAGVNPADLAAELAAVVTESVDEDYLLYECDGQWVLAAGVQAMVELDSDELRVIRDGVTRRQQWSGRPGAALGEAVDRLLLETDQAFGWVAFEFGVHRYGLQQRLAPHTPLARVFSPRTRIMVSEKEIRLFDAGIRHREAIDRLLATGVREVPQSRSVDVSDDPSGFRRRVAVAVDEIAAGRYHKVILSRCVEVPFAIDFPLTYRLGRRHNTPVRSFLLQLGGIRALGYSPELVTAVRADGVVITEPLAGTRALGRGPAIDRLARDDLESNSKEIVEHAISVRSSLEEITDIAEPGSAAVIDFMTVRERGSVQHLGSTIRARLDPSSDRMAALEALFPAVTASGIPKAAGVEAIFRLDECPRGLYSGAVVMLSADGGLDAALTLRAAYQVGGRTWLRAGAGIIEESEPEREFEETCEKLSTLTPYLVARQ
# Polio RdRp inh: poliovirus RNA polymerase inhibition; P03300; poliovirus polymerase elongation, fluorescence polarization; hits give low values; % elongation, % (compound at 16.7 µg/mL); actives 0.66% (n = 150,000); in the data active = % elongation below about 90%; also: some results filed as inactive read as strong as hits
# Mtb MenB inh: blocks the Mycobacterium tuberculosis MenB enzyme; P9WNP5; MenB enzyme assay, absorbance read-out; some hits fall short of the stated cut; inhibition, %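 (about 12 µg/mL by stock and volumes)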; actives 0.43% (n = 100,000);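 active = mean of two replicates above 30%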;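 also: 0% = no compound and 100% = wells with inactive enzyme; the first replicate is given; strong numbers were not always called active; inactives centre near -10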
# Target sequence (P9WNP5 whole entry, looked up): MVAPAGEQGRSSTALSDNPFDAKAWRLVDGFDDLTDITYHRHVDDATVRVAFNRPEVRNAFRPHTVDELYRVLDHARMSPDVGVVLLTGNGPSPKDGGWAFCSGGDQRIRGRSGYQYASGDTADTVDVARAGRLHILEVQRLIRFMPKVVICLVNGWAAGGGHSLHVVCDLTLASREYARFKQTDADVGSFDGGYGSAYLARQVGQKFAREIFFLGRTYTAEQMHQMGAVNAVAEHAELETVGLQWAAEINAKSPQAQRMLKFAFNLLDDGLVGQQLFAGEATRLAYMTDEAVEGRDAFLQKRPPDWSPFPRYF
# Polio RdRp inh intensity: recorded beside Polio RdRp inh, whose call it bears; % elongation; measured here: total intensity read-out; formula for this scale not given here;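 total fluorescence in place of polarization; lower means less elongation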
# * hit, by the source's call; x = not tested or not shown; & = joins results of further samples.
# Results follow in this order: MbtI inh, Polio RdRp inh, Polio RdRp inh intensity, Mtb MenB inh
- Cc1nc2scc(C)n2c(=O)c1S(=O)(=O)N1CCC(C)CC1
 : -1, 102, 100, -12
- Cc1ccc2nc(-c3ccccn3)oc2c1
 : 116, 106, 98, -17
- COc1ccc(-c2cc(=O)oc3cc4occ(-c5cccc(OC)c5)c4cc23)cc1
 : -6, 102, 99, 5
- CC1CCCCC1NC(=O)c1ccc2c(=O)n(Cc3ccc4c(c3)OCO4)c(=O)[nH]c2c1 (stereo not given)
 : 3, 104, 107, -16
- COc1ccc(-c2c(C)nn3c(N4CCC(C(=O)NCC(OC)OC)CC4)cc(C)nc23)cc1OC
 : 0, 103, 105, -21
- O=C(NC1CC1)C(F)(F)C1(F)OC(F)(F)C(F)(F)C1(F)F (stereo not given)
 : -1, 102, 107, 6
- O=C1C(C=NCCN2CCOCC2)=C(O)c2ccccc21
 : -5, 102, 107, -48
- COC(=O)Cc1cc(=O)[nH]c(/N=C(\N)Nc2ccc(C(C)C)cc2)n1
 : -6, 101, 101, -6
- CCOC(OCC)c1ccc(C=C(C#N)C#N)cc1
 : 14, 96, 94, -22
- CCN1C(=O)c2cccc3c(NC(=S)NC(=O)c4ccccc4)ccc1c23
 : 11, 102, 116, -14
- Cc1csc(=O)n1CCC(=O)O
 : 4, 102, 106, 5
- O=c1sc2ccccc2n1Cc1nnc(SCc2ccccn2)n1-c1cccc(Cl)c1
 : 9, 104, 107, -18
- CCCc1nnc(SCC(=O)N(CC)CC)n1C
 : -10, 99, 102, -43
- CN(C)N1C(=O)c2cccc3cccc(c23)C1=O
 : 6, 104, 106, -12
- O=C(/C=C\c1ccc2c(c1)OCO2)NC1(C(=O)Nc2ccc3c(c2)OCO3)CCCCC1
 : 12, 104, 99, -2
- COc1ccccc1CNC(=O)[C@H](C)N1C(=O)C2CC=CCC2C1=O (stereo not given in full)
 : -7, 103, 107, -2
- CN(C(=O)c1cc2cccnc2n(C)c1=O)c1ccccc1
 : 13, 106, 112, -23
- Cc1ccc2occ(CC(=O)Nc3cccc(C(F)(F)F)c3)c2c1
 : 5, 101, 101, -24
- Cc1ccc(NC(=O)CCn2ccnc2C)cc1Cl
 : -6, 101, 107, -8
- CC1(C)CC(NC(=O)c2ccn[nH]2)CC(C)(C)N1
 : x, 104, 107, -5
- Nc1cc(S(=O)(=O)C(F)(F)F)ccc1Cl
 : -6, 99, 106, x
- CCc1nc2nc3ccccc3nc2n1-c1ccc(N2CCOCC2)cc1
 : -10, 105, 113, -17
- Cc1cccc(-n2ncc(C(=O)N3CCCC3)c2C2CCNCC2)c1
 : -14, 105, 102, -6
- Cn1cccc1C(=O)NC(=O)CSc1nnc(-c2cccnc2)o1
 : 1, 102, 109, -26
- CC(C)(C)c1ccc(C(=O)NC2CCNCC2)cc1
 : -12, 102, 100, -34
- O=C(CSc1ncn[nH]1)Nc1ccc(F)cc1
 : 1, 104, 105, 15
- CCCn1c(SC/C(O)=C(\C#N)c2nc3ccccc3[nH]2)n[nH]c1=O
 : 18, 104, 117, -24
- COC(=O)c1ccc(Cn2cc(C(F)(F)F)cc(Cl)c2=O)o1
 : 6, 102, 99, -27
- O=C1CC(NS(=O)(=O)c2ccccc2)CN1c1ccc2c(c1)OCCO2 (stereo not given)
 : -7, 104, 106, -22
- CCOC(=O)CC(N)c1ccc2c(c1)OCO2 (stereo not given)
 : -13, 102, 102, 6
- Oc1cccc(CN2CCN(Cc3ccccc3)CC2)c1
 : -8, 100, 102, -2
- Cn1c(=O)[nH]c(=O)c2ccc(-c3ccccc3)nc21
 : 100, 102, 104, -1
- N#CC1=Cc2ccccc2OC1
 : 4, 97, 93, -10
- COc1cc(C2N(C(C)=O)CCN2S(=O)(=O)c2ccc(C)cc2)ccc1O (stereo not given)
 : -8, 105, 100, -18
- Cc1cc(C(=O)CSc2nnc(C(F)(F)F)n2N)c(C)n1CC1CCCO1 (stereo not given)
 : 3, 102, 109, -15
- O=S(=O)(NCCN1CCOCC1)c1ccc(I)cc1
 : -8, 105, 106, -16
- N#CC1=C(N)Oc2c(sc3ccccc23)C1c1ccccc1OC(=O)c1ccccc1Cl (stereo not given)
 : -9, 101, 106, 7
- N#CCc1ccc(C(F)(F)F)cc1
 : 0, 102, 108, -21
- O=C(NCC1CCCO1)c1cccc(-n2cnnn2)c1 (stereo not given)
 : -7, 97, 97, -2
- Cc1ccc(OCC(=O)Nc2cccnc2)c(-n2nc3ccccc3n2)c1
 : 90, 100, 101, -32
- CCOc1ccc(Cl)cc1S(=O)(=O)N1CCC(C(=O)NC(C)COC)CC1 (stereo not given)
 : -3, 104, 104, 1
- CSc1cccc(NC(=O)c2cnn3ccccc23)c1
 : -53, 99, 98, -18
- O=c1c(C=NCc2ccc3c(c2)OCO3)c(O)n(C2CCCCC2)c(=O)n1C1CCCCC1
 : 0, 99, 102, -12
- COc1cc(OC)c(NC(=O)Cn2c(=O)n(C)c(=O)c3ccccc32)cc1Cl
 : -7, 102, 103, -72
- O=c1[nH]nc(Sc2ncnc3sc4c(c23)CCCCC4)n1CC1CCCO1 (stereo not given)
 : -14, 102, 109, -41
- N/C(CS(=O)(=O)Cc1cccc(C(F)(F)F)c1)=N\O
 : -5, 102, 103, -8
- CCCCn1c(=O)c2oc3ccccc3c2n(CC(N)=O)c1=O
 : 18, 104, 97, -32
- COc1ccc(CCNC(=O)c2nn(C)c3c2COc2ccccc2-3)cc1OC
 : 44, 100, 101, -11
- Nc1ccc2[nH]c(=O)nc(-c3ccccc3)c2c1
 : 0, 104, 100, -254
- COC(=O)C1=C(C)NC2=C(C(=O)CC(c3ccccc3)C2)C1c1ccc(N(C)C)cc1 (stereo not given)
 : 11, 103, 102, -20

# Following part:
# Results follow in this order: MbtI inh, Polio RdRp inh, Polio RdRp inh intensity, Mtb MenB inh
- Cc1ccc(NC(=O)COC(=O)CN2CCCCCC2=O)cc1C
 : -4, 101, 101, -4
- COc1ccccc1CN1CCCC1
 : 3, 102, 100, -13
- CCCCN(CC)C(=O)c1cc2cc3cc(OC)ccc3nc2s1
 : 6, 103, 99, -7
- CCCOC(=O)CCc1n[nH]c(=O)[nH]c1=O
 : -6, 104, 104, 0
- CCC(Sc1nc(C)c(Cc2ccccc2)c(=O)[nH]1)C(=O)O (stereo not given)
 : -19, 102, 102, 5
- COc1ccc2c(c1)CCCC21SC(NC(C)=O)=NN1C(C)=O (stereo not given)
 : 8, 109, 108, -30
- COc1ccccc1N(C)S(=O)(=O)c1ccc(C)c(C(=O)O)c1
 : -25, 101, 103, -12
- Cc1nc2ccc(NC(=O)CC(C)(C)C)cc2s1
 : -2, 95, 91, -7
- O=C(O)CCn1cnc2sc3c(c2c1=O)CCCC3
 : 6, 100, 113, -21
- FC(F)(F)c1c(-c2nc(-c3ccc(Cl)cc3)no2)cnn1-c1ccccc1
 : 7, 103, 106, -19
- O=C(Cn1cnc2onc(-c3ccc(Cl)cc3)c2c1=O)NCc1ccccc1Cl
 : -1, 100, 103, -5
- N#CCCSc1nnc(-c2cccnc2)o1
 : -11, 101, 103, -2
- CCN1C(=O)CC(c2ccc(OC)cc2)Sc2ccccc21 (stereo not given)
 : 0, 105, 106, -5
- CCC(C)NC(=O)c1cn(CCOC)c(=O)c2c1c1ccccc1n2C (stereo not given)
 : -104, 100, 102, -9
- CCCCSC1=NC(C)(C)CC(C)O1 (stereo not given)
 : -5, 102, 98, -47
- C/C=C/C=N/Nc1nc(C)cc(=O)[nH]1
 : 20, 98, 102, 10
- CCc1c(C)sc2nc(CC(=O)N3CCOCC3)[nH]c(=O)c12
 : -33, 103, 115, -32
- CC1CCCC(NC(=O)Cn2nnc(-c3ccc(Cl)cc3)n2)C1C (stereo not given)
 : 3, 99, 102, 0
- Cc1[nH]c2ccc(-c3nnc(SCC(=O)c4ccccc4F)o3)cc2c1C
 : -47, 103, 101, -14
- C=CCn1c(SCc2ccccc2)nnc1-c1ccc2ncccc2c1
 : -34, 101, 102, 11
- COc1cccc(-c2nc(CS(=O)(=O)CC(=O)NCCc3ccccc3)c(C)o2)c1
 : 11, 101, 108, -23
- CC1(C)CC(=O)C2=C(C1)OC(N)=C(C#N)C2c1ccc2c(c1Cl)OCO2 (stereo not given)
 : -21, 106, 101, -11
- CC(C)C(NC(=O)c1ccc(NS(C)(=O)=O)cc1)C(C)C
 : -18, 100, 103, -5
- CCC1NCCNC1=O (stereo not given)
 : -2, 100, 101, 10
- CP(=O)(O)c1nccn1-c1ccc(Cl)nn1
 : 6, 101, 106, 12
- O=C(O)CCNC(=S)Nc1ccc(Cl)cc1
 : 2, 102, 105, -14
- CCN(CC)C1CCCCC1
 : x, 105, 110, -4
- N#Cc1sc2nc3ccccc3n2c1/N=C/c1cccs1
 : -11, 104, 110, 10
- c1ccc(SCCNCc2ccccn2)cc1
 : -14, 101, 106, -6
- CC1CCCCC1NC(=O)c1ccccc1Cl (stereo not given)
 : x, 106, 103, -3
- COc1cc2c(C(=O)NCCC3=CCCCC3)cn(C)c(=O)c2cc1OC
 : 31, 101, 103, 14
- CC1NC(=O)NC1CCCCC(=O)O (stereo not given)
 : 8, 102, 102, -10
- COC(=O)N/N=C(\C)c1ccccc1Br
 : 3, 104, 99, 4
- Clc1cccc(C2OCC3(CO2)COC(c2cccc(Cl)c2)OC3)c1 (stereo not given)
 : 9, 103, 104, -15
- CC(Sc1nncn1C)C(=O)N(Cc1ccccc1)Cc1ccccc1 (stereo not given)
 : -8, 104, 108, -26
- CCOC(=O)c1oc2ccc(Br)cc2c1COC(=O)C1=COCCO1
 : 9, 99, 96, -35
- CC1CC(C)CN(C(=O)CCCn2ncn3c(cc4occc43)c2=O)C1 (stereo not given)
 : 9, 103, 97, 9
- Cc1ccc(C(=O)Nc2ccccc2)c(C)n1
 : -2, 101, 105, -1
- CCOc1ccccc1NC(=O)c1cnccn1
 : -14, 101, 103, 28
- O=C(CSc1cccc2cccnc12)OCC(=O)c1ccc(Br)cc1
 : x, 104, 112, -5
- CCCn1nc(C(=O)OC)c2ccccc2c1=O
 : 16, 101, 104, -6
- CCc1ccc[n+](OC(=O)N(CC)CC)c1
 : -24, 96, 98, -9
- COC(=O)CC1C(=O)NCCN1C(=O)c1ccc(OC)cc1 (stereo not given)
 : 7, 105, 98, 13
- Oc1cccc2ccc(Oc3cccc4cccnc34)nc12
 : -4, 104, 99, -38
- Cc1cccc(N2CCN(C(=O)CCCC(=O)N3CCN(c4cccc(C)c4C)CC3)CC2)c1C
 : -1, 101, 103, -14
- O=C(COC(=O)Cc1ccsc1)NC1CCCCCC1
 : -3, 101, 94, x
- O=C(Cc1cccs1)N1CCN=C1SCc1ccccc1
 : 3, 101, 108, -12
- Cc1ccc(NCC(=O)NC2CCCCC2C)c(C)c1 (stereo not given)
 : 8, x, x, -7
- N#Cc1ccsc1NC(=O)CSc1nnc(-c2ccccc2)n1Cc1ccc2c(c1)OCO2
 : 0, 109, 116, -22
- CCCN(CCC)C(=O)c1ccc(CNS(=O)(=O)c2ccc(F)cc2)cc1
 : -7, 101, 95, -24

# More records follow:
# Results follow in this order: MbtI inh, Polio RdRp inh, Polio RdRp inh intensity, Mtb MenB inh
- CCCC1OCC2(CO)C(C)C=C(C)C1C2C (stereo not given)
 : -6, 106, 101, -88
- CCCCC[C@H](O)/C=C/C1=C(CCCCCCC(=O)O)C(=O)CC1
 : -5, 100&99, 102&100, 1
- O=C(OCc1ccc(F)cc1F)c1ccc(F)cc1
 : -21, 99, 103, -11
- CC(C)C(c1nnnn1CCc1ccccc1)N(Cc1ccco1)Cc1ccccc1Cl (stereo not given)
 : -2, 102, 102, -86
- CCN1CCN(C(=O)NC(C(=O)NC2C(=O)N3C(C(=O)O)=C(CSc4nnnn4C)CSC23)c2ccc(O)cc2)C(=O)C1=O (stereo not given)
 : -23, 102, 101, 11
- COC(=O)c1ccc(NC(=O)CCc2c(C)nc3c(c(C)nn3C)c2C)cc1
 : 8, 102, 105, -28
- CCSC1=C(C#N)C(c2ccccc2)CC(=O)N1 (stereo not given)
 : 5, 100, 101, -4
- CCOc1nc(Nc2ccccc2)nc(Nc2ccccc2)n1
 : -23, 100, 104, -60
- Cc1cc(C)n(C(=O)N2CCOCC2)n1
 : 12, 106, 106, -17
- Cc1ccc(CCNC(=O)C2CC(=O)N(C3CCCC3)C2)cc1 (stereo not given)
 : -27, 101, 103, -16
- COc1ccc(C(=O)NNc2nnc(C(C)(C)C)c(=O)n2N)cc1
 : -2, 103, 104, 1
- C=C(C)C(=O)Oc1ccc2c(c1)C(C)=CC(C)(C)N2
 : -4, 104, 103, 10
- C=CCNc1nc(-c2ccc(OC)cc2)cs1
 : x, 110, 109, -5
- CN1/C(=C/C(=O)c2ccco2)Sc2ccccc21
 : x, 105, 96, -154
- COc1cccc(C(=O)n2nc(-c3cccnc3)nc2NCc2ccco2)c1
 : 34, 102, 102, -8
- OCC(O)Cn1c2ccc(Br)cc2c2cc(Br)ccc21 (stereo not given)
 : -8, 98, 106, -10
- O=C(Nc1ccc2oc(=O)ccc2c1)c1cc2ccccc2o1
 : x, 106, 109, 0
- CC(C)(C)SCC(=O)Nc1nn2cnnc2s1
 : 0, 101, 111, 1
